p53 nuclei: nuclear p53 accumulation, HPV+ cells – imaging, p53-positive nuclei imaging, 24 h, 48 h (AID 1508601). p53-positive nuclei imaging, 48 h; hits give high values; some inactives read as strong as hits. p53-positive nuclei, normalised, % at 11 µM unless noted. hit rate 1% among 5,700;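 active means mean of two plates above 50% at 24 h or at 48 h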;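 further: HPV-positive HeLa cells with a fluorescent p53 stability reporter; 0% = vehicle and 100% = proteasome inhibitor control; doses worked out from stocks diluted about 900-fold with the highest of each compound shown; many of its hits are not listed in these tables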
p53 nuclei cells 24 h: recorded beside p53 nuclei, whose call it bears; nuclei count, normalised, %; measured here: cell number at 24 h;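 100% = vehicle wells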
p53 nuclei p53 24 h: also measured in p53 nuclei; calls as there; p53-positive nuclei, normalised, %; measured here: p53 positive nuclei at 24 h;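 0% = vehicle and 100% = positive control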
p53 nuclei cells 48 h: second read-out of p53 nuclei, no call of its own (marks repeat the call); nuclei count, normalised, %; measured here: cell number at 48 h;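 100% = vehicle wells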
The depositor's hits bear a star; [ ] = another dose, or the depositor's remark. These rows are one share of the data. The share of hits here may be higher or lower than overall.

Start of the listing, in advance, 15 compounds:
SMILES	p53 nuclei	p53 nuclei cells 24 h	p53 nuclei p53 24 h	p53 nuclei cells 48 h
C[C@]12C=CC(=O)C=C1CC[C@@H]1[C@H]2C(O)C[C@@]2(C)[C@H]1CC[C@@]2(O)C(=O)CO (some centres undefined)	0.1[3.7 µM]	61	-0.1	66
O=C1C(CCC(O)c2ccc(F)cc2)C(c2ccc(O)cc2)N1c1ccc(F)cc1 (centres undefined)	0.0[3.7 µM]	106	0.0	101
CCC(NC(=O)C(C)NC)C(=O)N1CC(O)CC1Cc1c(-c2[nH]c3cc(F)ccc3c2CC2CC(O)CN2C(=O)C(CC)NC(=O)C(C)NC)[nH]c2cc(F)ccc12 (centres undefined)	-0.1[3.7 µM]	101	-0.2	100
OCCCNc1cc(-c2ccnc(Nc3cccc(Cl)c3)n2)ccn1	8.1	37	1.3	24
CC(C)(C)CCN1C[C@@H]2C(CNC(=O)c3cc(Cl)cc(Cl)c3)[C@@H]2C1 (some centres undefined)	0.2	78	0.1	80
OCC(O)C(O)C(O)CO (centres undefined)	-0.1[3.7 µM]	104	-0.3	101
CN(C)CCC(CSc1ccccc1)Nc1ccc(S(=O)(=O)NC(=O)c2ccc(N3CCN(Cc4ccccc4-c4ccc(Cl)cc4)CC3)cc2)cc1[N+](=O)[O-] (centres undefined)	0.0	116	0.0	127
O=C(C=Cc1ccc(O)c(O)c1)c1ccc(O)cc1O	-0.1[3.7 µM]	111	-0.3	105
CN(CC1COCCO1)S(=O)(=O)Nc1ccc2ccc3ncc(-c4cnn(C)c4)cc3c(=O)c2c1 (centres undefined)	-0.3[3.7 µM]	104	-0.6	102
CC(C)(Sc1ccc(CCN(CCCCC2CCCCC2)C(=O)NC2CCCCC2)cc1)C(=O)O	0.0	113	0.0	105
CSCCC(NC(=O)C1CCCN1C(=O)CNC(=O)C(CCCCN)NC(=O)C(Cc1cnc[nH]1)NC(=O)C(CO)NC(=O)C(CC(C)C)NC(=O)C(CCCN=C(N)N)NC(=O)C1CCCN1C(=O)C(CCCN=C(N)N)CC(=O)C1CCC(=O)N1)C(=O)N1CCCC1C(=O)NC(Cc1ccccc1)C(=O)O (centres undefined)	0.1	108	0.0	99
CCNC(=O)CCCC=CCC1C(O)CC(O)C1C=CC(O)CCc1ccccc1 (centres undefined)	-0.7[3.7 µM]	91	-0.4	93
COc1cc2ncnc(-n3nc(-c4ccccn4)nc3N)c2cc1OC	-0.1	80	0.8	81
Cn1c(=O)cc(N2CCCC(N)C2)n(Cc2cc(F)ccc2C#N)c1=O (centres undefined)	-0.1[3.7 µM]	109	-0.4	100
CN1CCC(NC(=O)c2cc(-c3c(O)cc(O)cc3Oc3ccc([N+](=O)[O-])cc3)on2)CC1	0.1[3.7 µM]	54	-0.1	43

Main list, from the first entry:
SMILES	p53 nuclei	p53 nuclei cells 24 h	p53 nuclei p53 24 h	p53 nuclei cells 48 h
C[C@]12C=CC(=O)C=C1CC[C@@H]1[C@H]2C(O)C[C@@]2(C)[C@H]1CC[C@@]2(O)C(=O)CO (some centres undefined)	0.1[3.7 µM]	61	-0.1	66
O=C1C(CCC(O)c2ccc(F)cc2)C(c2ccc(O)cc2)N1c1ccc(F)cc1 (centres undefined)	0.0[3.7 µM]	106	0.0	101
CCC(NC(=O)C(C)NC)C(=O)N1CC(O)CC1Cc1c(-c2[nH]c3cc(F)ccc3c2CC2CC(O)CN2C(=O)C(CC)NC(=O)C(C)NC)[nH]c2cc(F)ccc12 (centres undefined)	-0.1[3.7 µM]	101	-0.2	100
OCCCNc1cc(-c2ccnc(Nc3cccc(Cl)c3)n2)ccn1	8.1	37	1.3	24
CC(C)(C)CCN1C[C@@H]2C(CNC(=O)c3cc(Cl)cc(Cl)c3)[C@@H]2C1 (some centres undefined)	0.2	78	0.1	80
OCC(O)C(O)C(O)CO (centres undefined)	-0.1[3.7 µM]	104	-0.3	101
CN(C)CCC(CSc1ccccc1)Nc1ccc(S(=O)(=O)NC(=O)c2ccc(N3CCN(Cc4ccccc4-c4ccc(Cl)cc4)CC3)cc2)cc1[N+](=O)[O-] (centres undefined)	0.0	116	0.0	127
O=C(C=Cc1ccc(O)c(O)c1)c1ccc(O)cc1O	-0.1[3.7 µM]	111	-0.3	105
CN(CC1COCCO1)S(=O)(=O)Nc1ccc2ccc3ncc(-c4cnn(C)c4)cc3c(=O)c2c1 (centres undefined)	-0.3[3.7 µM]	104	-0.6	102
CC(C)(Sc1ccc(CCN(CCCCC2CCCCC2)C(=O)NC2CCCCC2)cc1)C(=O)O	0.0	113	0.0	105
CSCCC(NC(=O)C1CCCN1C(=O)CNC(=O)C(CCCCN)NC(=O)C(Cc1cnc[nH]1)NC(=O)C(CO)NC(=O)C(CC(C)C)NC(=O)C(CCCN=C(N)N)NC(=O)C1CCCN1C(=O)C(CCCN=C(N)N)CC(=O)C1CCC(=O)N1)C(=O)N1CCCC1C(=O)NC(Cc1ccccc1)C(=O)O (centres undefined)	0.1	108	0.0	99
CCNC(=O)CCCC=CCC1C(O)CC(O)C1C=CC(O)CCc1ccccc1 (centres undefined)	-0.7[3.7 µM]	91	-0.4	93
COc1cc2ncnc(-n3nc(-c4ccccn4)nc3N)c2cc1OC	-0.1	80	0.8	81
Cn1c(=O)cc(N2CCCC(N)C2)n(Cc2cc(F)ccc2C#N)c1=O (centres undefined)	-0.1[3.7 µM]	109	-0.4	100
CN1CCC(NC(=O)c2cc(-c3c(O)cc(O)cc3Oc3ccc([N+](=O)[O-])cc3)on2)CC1	0.1[3.7 µM]	54	-0.1	43
OCc1ccccc1OC1OC(CO)C(O)C(O)C1O (centres undefined)	0.1[3.7 µM]	106	-0.1	108
COc1cccc2c1C(=O)c1c(O)c3c(c(O)c1C2=O)C[C@@](O)(C(=O)CO)C[C@@H]3OC1CC(N)C(OC2CCCCO2)C(C)O1 (some centres undefined)	16[3.7 µM]	43	10	38
O=C(NOCC(O)CO)c1ccc(F)c(F)c1Nc1ccc(I)cc1F (centres undefined)	0.3	100	0.0	96
CN(C)c1ccc(C(=O)NCCCCCCC(=O)NO)cc1	25[3.7 µM]	54	45	45
CC(C)c1ccc2c(c1)c(SC(C)(C)C)c(CC(C)(C)C(=O)O)n2Cc1ccc(Cl)cc1	-0.1	94	0.4	106
Fc1ccc(-c2csc3ncnc(NCc4ccc5c(c4)OCO5)c23)cc1	-0.1	104	-0.1	110
O=C1Nc2ccc(I)cc2C1=Cc1cc(Br)c(O)c(Br)c1	-0.1	107	0.0	112
CC(C)(O)c1ccccc1CCC(SCC1(CC(=O)O)CC1)c1cccc(C=Cc2ccc3ccc(Cl)cc3n2)c1 (centres undefined)	0.0	101	-0.1	98
CC1CN(CC(Cc2ccccc2)C(=O)NCC(=O)O)CC[C@@]1(C)c1cccc(O)c1 (some centres undefined)	0.0	116	0.0	110
Cc1cc(C)nc(NC(=S)N2CCN(Cc3ccc(C(F)(F)F)cc3)CC2)c1	0.5	109	0.1	70

3 structures already listed, ordered by SMILES length, high to low.
SMILES	p53 nuclei	p53 nuclei cells 24 h	p53 nuclei p53 24 h	p53 nuclei cells 48 h
COc1cccc2c1C(=O)c1c(O)c3c(c(O)c1C2=O)C[C@@](O)(C(=O)CO)C[C@@H]3OC1CC(N)C(OC2CCCCO2)C(C)O1 (some centres undefined)	16[3.7 µM]	43	10	38
C[C@]12C=CC(=O)C=C1CC[C@@H]1[C@H]2C(O)C[C@@]2(C)[C@H]1CC[C@@]2(O)C(=O)CO (some centres undefined)	0.1[3.7 µM]	61	-0.1	66
CC(C)(Sc1ccc(CCN(CCCCC2CCCCC2)C(=O)NC2CCCCC2)cc1)C(=O)O	0.0	113	0.0	105

(cont.)
SMILES	p53 nuclei	p53 nuclei cells 24 h	p53 nuclei p53 24 h	p53 nuclei cells 48 h
CON=C(C(=O)N[C@@H]1C(=O)N2C(C(=O)O)=C(CSC(=O)c3ccco3)CS[C@H]12)c1csc(N)n1	-0.2[3.7 µM]	105	-0.3	106
O=C(O)CCCCCCCCCCCNC(=O)NC12CC3CC(CC(C3)C1)C2	0.0	101	-0.1	101
COc1cc2c(c(OC)c1OC)-c1c(cc3c(c1OC)OCO3)CC(C)C(C)C2 (centres undefined)	0.1[3.7 µM]	115	-0.1	104
CCOc1ccc(NC(C)=O)cc1	-0.3[3.7 µM]	115	-0.5	111
O=c1[nH]c(C2CCCN2)nc2c1oc1ccc(Cl)cc12 (centres undefined)	0.1	56	0.2	34
CCCc1cc(C)[nH]c(=O)c1CNC(=O)c1cc(-c2ccnc(N3CCN(C)CC3)c2)cc2c1cnn2C(C)C	-0.2	105	-0.1	109
CC1CC(OC(=O)C(O)c2ccccc2)CC(C)(C)C1 (centres undefined)	-0.2[3.7 µM]	98	-0.3	98
Cc1cc(NC2CCCCC2)nc(-n2nc(C)cc2C)n1	-0.1	103	0.0	100
NCCCCCNCC12CC3CC(CC(C3)C1)C2	-0.1[3.7 µM]	119	-0.5	109
O=C(Cc1cccc(OC(F)(F)F)c1)Nc1ccc(CCCCc2nnc(NC(=O)Cc3ccccn3)s2)nn1	0.5	86	1.0	98
CCCCN1CCCCC1C(=O)Nc1c(C)cccc1C (centres undefined)	-0.3[3.7 µM]	112	-0.5	104
O=c1cc(CN2CCOCC2)occ1OCCCCCSc1ccnc2cc(C(F)(F)F)ccc12	-0.1[3.7 µM]	111	-0.4	112
C#Cc1c[nH]c(=O)[nH]c1=O	0.0	107	-0.1	106
COc1c(C)c2c(c(O)c1CC=C(C)CCC(=O)O)C(=O)OC2	-0.2	65	0.0	41
O=c1c(O)c(-c2ccc(O)cc2)oc2cc(O)cc(O)c12	-0.2[3.7 µM]	100	-0.3	104
Clc1ccc(Cc2ccncc2)cc1	0.1	102	0.0	105
Cc1[nH]c(C=C2C(=O)Nc3ccc(S(=O)(=O)N(C)c4cccc(Cl)c4)cc32)c(C)c1C(=O)N1CCN(C)CC1	0.0	64	0.1	45
COC(=O)NC(C(=O)NC(Cc1ccccc1)C(O)CN(Cc1ccc(-c2ccccn2)cc1)NC(=O)C(NC(=O)OC)C(C)(C)C)C(C)(C)C (centres undefined)	-0.6[3.7 µM]	122	-0.3	118
CCCCCCCCCCCC(CC1OC(=O)C1CCCCCC)OC(=O)C(CC(C)C)NC=O (centres undefined)	0.2	107	0.1	118
Fc1ccc(C2CCNCC2COc2ccc3c(c2)OCO3)cc1 (centres undefined)	0.1	104	0.3	110
Cc1cncc(CN2CCC(=C3c4ccc(Cl)cc4CCc4cccnc43)CC2)c1	-0.1	102	-0.1	106
O=C(NCC1CN(c2ccc(N3CCOCC3=O)cc2)C(=O)O1)c1ccc(Cl)s1 (centres undefined)	0.0	75	0.1	83
CC(C)(C)n1nc(-c2ccc(Cl)cc2)c2c(N)ncnc21	8.9	62	0.7	49
Nc1ccn(C2C=C(CO)C(O)C2O)c(=O)n1 (centres undefined)	0.5	65	0.5	52
O=C(C=Cc1cccnc1)NCCCCC1CCN(C(=O)c2ccccc2)CC1	0.5	91	0.0	54

Other entries
SMILES	p53 nuclei	p53 nuclei cells 24 h	p53 nuclei p53 24 h	p53 nuclei cells 48 h
CC(S)C(=O)NCC(=O)O (centres undefined)	0.1[3.7 µM]	107	0.0	108
O=S(=O)(NC1CCNCC1)c1cc(S(=O)(=O)c2ccccc2)ccc1C(F)(F)F	-0.1	104	-0.1	111
OCC1OC(c2ccc(F)c(Cc3cc4ccccc4s3)c2)C(O)C(O)C1O (centres undefined)	0.1	108	0.2	110
CC1(C)CC(=O)c2c(C(F)(F)F)nn(-c3ccc(C(N)=O)c(NC4CCC(OC(=O)CN)CC4)c3)c2C1 (centres undefined)	-0.3[3.7 µM]	46	-0.3	39
CC1CC=CC=CC=CC=CC(O[C@@H]2OC(C)C(O)C(N)C2O)C[C@@H]2O[C@](O)(CC(O)C[C@H]3OC3C=CC(=O)O1)CC(O)C2C(=O)O (some centres undefined)	-0.6[3.7 µM]	96	-0.3	99
C[C@H](NCCc1ccc(O)cc1)[C@H](O)c1ccc(O)cc1	-0.3[3.7 µM]	98	-0.3	96
COc1cc2c(Nc3ccc(Br)cc3F)ncnc2cc1OCC1CCN(C)CC1	-0.2	92	-0.2	89
CC(C)(C)c1cc(C(=O)C(C#N)=NNc2cccc(Cl)c2)no1	-0.2[3.7 µM]	111	-0.3	107
Nc1ccc(C(=O)NCC(=O)O)cc1	-0.3[3.7 µM]	117	-0.6	121
CC1(C)CC[C@]2(C(=O)O)CC[C@]3(C)C(=CC[C@@H]4[C@@]5(C)CCC(O)C(C)(C)[C@H]5CC[C@]43C)[C@H]2C1 (some centres undefined)	0.0	114	0.1	117
COc1cc(-c2ncn(C=CC(=O)OC(C)C)n2)cc(C(F)(F)F)c1	0.0[3.7 µM]	87	-0.3	88
O=C(Nc1ccccc1)c1cc([N+](=O)[O-])ccc1Cl	-0.3[3.7 µM]	116	-0.6	114
